Source: PubChem (several laboratories)
LANA-H2B inh = blockers of LANA interaction with H2A/H2B – biochemical, FP readout, HTS, primary screen | 320,000 tested, 0.6% active | inhibition, % (test concentration not listed) | AID 2629, 2010 | Protein LANA1 (Human herpesvirus 8 type P (isolate GK18)), Q9QR71 | cell-free LANA-H2A/H2B peptide, fluorescence polarization; in the data active means inhibition mostly above about 10%, no sharp cut-off; inactive means mostly below about 6.7%;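 further: stock transfer was 7.5 nL into about 10 µL; 0% = median of vehicle wells and 100% = median of positive control wells; one replicate is shown; the record names a cut of 25% in any replicate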
Calb FLC = C. albicans growth inhibition with fluconazole, primary screen, CaCi-2 strain, Alamar Blue fluorescence; C. albicans CaCi-2 (fluconazole-resistant clinical isolate) + fluconazole, 48 h; growth inhibition, % (no concentration beside the values); 300,000 tested, 0.57% active; AID 1979, 2009;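 active means most replicates above 75%; inconclusive means exactly half above 75%; inactive means most below 75%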;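 further: all wells also contain fluconazole at 8 µg/ml as a sub-toxic cotreatment; 0% = median of DMSO wells and 100% = median of geldanamycin control wells; wells of about 8 µL received 7.5 nL stock; the first replicate is given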
RanGTP-Imp inh = inhibitors of RanGTP-importin-beta interaction, primary screen, biochemical, FRET, CFP-Ran, YFP-importin-beta, homogeneous | Ran GTPase (GTP-bound) - importin-beta complex | cell-free CFP-Ran/YFP-importin-beta FRET ratio | inhibition, % (test concentration not listed) | 300,000 tested, 1.1% active | AID 2216, 2009;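 active means most replicates above 15%; inconclusive means exactly half above 15%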;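 further: 0% = DMSO wells and 100% = Ran loaded with GDP instead of GTP; wells of about 40 µL received 100 nL stock; the first replicate is given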
T cruzi inh = inhibitors of intracellular T. cruzi growth, primary screen, luminescence, NIH3T3 host cells | T. cruzi beta-gal in NIH3T3, 90 h | inhibition, % (no concentration beside the values) | 300,000 tested, 1.4% active | AID 1885, 2009;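 active means mean inhibition across valid replicates above about 55%, limit read from the data; inconclusive means mean below that limit but half or more replicates reach it; inactive means mean below it, under half of replicates reach it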;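 further: signal also drops with host cell toxicity which is not excluded here; 0% = plate median of DMSO wells and 100% = zero luminescence signal; higher percent means less beta-gal luminescence so fewer parasites; stock transfer was 50 nL into about 50 µL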
UCH37 DUB inh = inhibitors of human UCH37 deubiquitinase, primary screen, biochemical, Ub-AMC cleavage, fluorescence | Ubiquitin carboxyl-terminal hydrolase isozyme L5 (Homo sapiens), Q9Y5K5 | 330,000 tested, 0.33% active | purified proteasome/UCH37 | inhibition, % (concentration not given with the values) | AID 588478, 2011;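 active means mean of two replicates above 20%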;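 further: 0% = compound-free wells with enzyme and 100% = wells lacking proteasome; stock transfer was 100 nL into about 20 µL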
Target sequence (Q9Y5K5 whole entry, looked up): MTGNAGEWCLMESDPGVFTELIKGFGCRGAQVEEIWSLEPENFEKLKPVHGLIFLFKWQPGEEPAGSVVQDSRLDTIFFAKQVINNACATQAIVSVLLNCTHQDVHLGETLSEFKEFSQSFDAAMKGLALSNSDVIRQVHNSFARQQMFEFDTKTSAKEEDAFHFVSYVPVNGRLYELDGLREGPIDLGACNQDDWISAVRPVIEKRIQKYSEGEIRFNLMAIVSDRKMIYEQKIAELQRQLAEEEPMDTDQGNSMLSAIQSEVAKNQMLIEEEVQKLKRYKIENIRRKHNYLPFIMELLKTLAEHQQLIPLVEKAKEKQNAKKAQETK
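Test system – human UCH37 enzyme supplied as purified proteasome complex · Incubation – 30 min preincubation with enzyme, 25 min cleavage at room temperature · Detection – AMC fluorescence from Ub-AMC cleavage, excitation 355 nm, emission 460 nm · Benchmarks – no-proteasome wells (full inhibition) and compound-free wells (no inhibition)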
Beta2AR agonist = beta2AR agonists driving receptor internalization, primary screen, cell-based, FAP fluorogen, flow cytometry | Am2.2-beta2AR cells; reference of the scale not given here | response, % (no concentration beside the values) | 340,000 tested, 0.43% active | AID 504454, 2011;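 active means response above a set limit, near 3 SD of response in nonfluorescent compounds, cut at about 42% in these data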;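 further: stock transfer was 100 nL into about 11 µL; a reference agonist was the positive control; negative values mostly stem from fluorescent compounds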
Target sequence (P07550 whole entry, looked up): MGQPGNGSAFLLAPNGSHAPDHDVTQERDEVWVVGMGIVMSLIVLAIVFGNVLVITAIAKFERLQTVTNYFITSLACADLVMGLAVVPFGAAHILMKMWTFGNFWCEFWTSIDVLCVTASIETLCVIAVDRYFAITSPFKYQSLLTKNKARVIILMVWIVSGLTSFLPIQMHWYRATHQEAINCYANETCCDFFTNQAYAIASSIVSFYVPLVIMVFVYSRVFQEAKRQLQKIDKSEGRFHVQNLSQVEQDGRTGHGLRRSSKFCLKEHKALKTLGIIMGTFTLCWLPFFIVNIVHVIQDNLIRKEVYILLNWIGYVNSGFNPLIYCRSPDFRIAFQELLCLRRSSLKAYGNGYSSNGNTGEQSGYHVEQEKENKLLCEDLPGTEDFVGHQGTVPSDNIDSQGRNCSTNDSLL
Bfl-1 A1 inh = caspase 3/7 activation in MEF A1-2A-BIM cells, primary screen, A1 inhibitor project, cell-based, luminescence, HTS | Caspase-Glo 3/7 luminescence, 3 h; percent of clofoctol response, vehicle zero | caspase activation, % (test concentration not listed) | 330,000 tested, 0.066% active;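 active means over half of replicate activation scores above 10%, or exactly half above 10 with the replicate mean above 10; inconclusive means replicate mean below 10 yet half the replicates above 10; inactive means over half of replicates below 10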;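 further: wells of about 30 µL received 50 nL stock; many hits fall short of the cut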
Beta apoptosis = inhibitors of cytokine-induced beta cell apoptosis, primary screen, luminescence | protection from apoptosis, % (test concentration not listed) | 300,000 tested, 0.8% active | AID 435005, 2010 | INS-1E cytokine-induced death, ATP luminescence, 48 h; percent of positive-control rescue, neutral wells zero;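 active means all replicates at 75% or more, or half of them and the mean; inconclusive means half reach 75% but not the mean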;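 further: 0% = cytokine-treated negative control wells and 100% = positive control rescue; higher means more ATP so stronger rescue from cytokine killing; wells of about 40 µL received 100 nL stock; the first replicate is given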
An asterisk follows results filed as active; u = inconclusive; x = not tested or not shown.

SMILES	LANA-H2B inh	Calb FLC	RanGTP-Imp inh	T cruzi inh	UCH37 DUB inh	Beta2AR agonist	Bfl-1 A1 inh	Beta apoptosis
COc1cccc(C(=O)Nc2cccc(NC(=O)c3ccccc3Cl)c2)c1	-1.0	10	0.4	-5	4.0	1	-1.5	x
CCOc1ccc(-n2c(O)c(/C=N/NC(=O)C3COc4ccccc4O3)c3ccccc3c2=O)cc1 (stereo unspecified)	x	62	-0.4	6	-1.0	-10	0.3	4
COc1ccc(C(=O)n2cnnc2N)cc1	-0.3	-8	-3.5	-1	2.6	-1	-1.4	-21
COc1ccc(Cc2nnc(NC(=O)c3c(-c4ccccc4)noc3C)s2)cc1OC	2.7	18	0.7	-5	3.4	-2	0.2	x
CCCCN(C(=O)CSc1nnc(Nc2ccccc2)s1)c1c(N)n(CCC)c(=O)[nH]c1=O	-1.1	-7	-2.2	-12	7.2	-2	-0.1	-2
COc1ccc(NC(=O)CSc2nnnn2C2CC3C=CC2C3)cc1 (stereo unspecified)	1.2	11	0.8	2	1.8	-9	0.5	1
CC(C)(C)C(=O)COC(=O)CNC(=O)c1ccc(Oc2ccccc2)cc1	9.5	-8	u	9	2.2	-11	-0.3	-8
Cc1c(Cc2ccccc2)c(=O)oc2c(C)c(OCC(=O)NCC3CCC(C(=O)O)CC3)ccc12 (stereo unspecified)	5.7	3	-3.8	3	-110	14	0.3	7
CC(=O)Nc1cccc(NC(=O)c2ccccc2OCc2c(C)noc2C)c1	-5.2	-1	4.4	-3	0.5	5	0.8	x
CSC(=NNC(=O)c1ccccc1O)SC	-3.4	-5	0.6	-8	x	-8	0.1	0
CC(Cc1ccccc1)NC(=O)CCCN1C(=O)c2ccccc2C1=O (stereo unspecified)	-2.1	2	0.2	-11	0.1	1	0.6	0
COc1ccc(C(Nc2cccc([N+](=O)[O-])c2)P(=O)(OC(C)C)OC(C)C)cc1 (stereo unspecified)	-2.2	-9	-1.7	16	4.8	-1	0.0	-4
CCc1ccccc1NC(=S)N(CCN1CCOCC1)C1CCN(C(C)=O)CC1	5.0	-6	1.9	-6	-1.0	-1	0.2	1
CSc1cccc(NC(=O)CN(C)S(=O)(=O)c2ccccc2)c1	2.1	-11	-4.3	-11	5.9	-9	-2.0	-2
COc1cc(/C=C/C(=O)OCC(=O)c2ccc3c(c2)NC(=O)CO3)ccc1OC(F)F	0.1	x	x	x	x	3	-0.4	2
CC1=C(C)CC(C(=O)NCc2ccccc2F)C(C(=O)O)C1 (stereo unspecified)	0.1	0	-2.1	-4	x	2	0.6	-4
CCN(CC(=O)NCc1cccs1)C(=O)c1cccc(S(=O)(=O)Nc2cccc(C)c2)c1	-7.1	x	x	x	1.2	-4	1.2	-1
COc1ccccc1C(=O)NCCCNc1ccc([N+](=O)[O-])cc1	-1.5	0	6.6	-4	5.0	5	-0.2	9
COc1ccccc1N(CC(=O)NCCSC(C)(C)C)S(C)(=O)=O	2.4	-12	-2.5	-2	3.2	-5	-1.0	0
CCOC(=O)c1sc(=NC(=O)c2ccc(Cl)s2)n(C)c1C	3.3	-9	3.6	1	-49	0	-5.1	-3
COc1ccc(NC(=O)CSc2nnc(NC(=O)C3CC3)s2)cc1OC	2.3	-1	-1.3	-3	2.6	-1	-0.3	2
O=C(CSc1cn[nH]n1)Nc1ccc(Cl)cc1Cl	-0.9	-2	2.8	13	-0.4	-3	1.3	-13
O=C(NCc1ccco1)/C(=C/C=C\c1ccccc1)NC(=O)c1ccc(Br)o1	-3.7	12	1.6	-8	6.1	-7	-1.1	2
CCN(CC(=O)Nc1ccc(OC)cc1)CC(=O)Nc1cccc(C#N)c1	0.0	-8	3.5	-12	1.8	4	1.4	-1
COc1ccc(NC(=O)C2CC(=O)OC2(C)C)cc1 (stereo unspecified)	-1.1	20	4.1	-6	1.1	3	-0.7	-3

The list goes on:
SMILES	LANA-H2B inh	Calb FLC	RanGTP-Imp inh	T cruzi inh	UCH37 DUB inh	Beta2AR agonist	Bfl-1 A1 inh	Beta apoptosis
CCOC(=O)N1CCN(S(=O)(=O)c2ccc3c4c(cccc24)C(=O)N3)CC1	-2.8	-2	8.8	-6	x	-8	0.7	x
O=C(CN1C(=O)C2C3C=CC(C3)C2C1=O)NCc1ccccc1 (stereo unspecified)	-1.5	-8	-0.8	-15	-1.0	-6	0.0	1
CN(Cc1n[nH]c(=S)n1C)S(=O)(=O)c1ccccc1	2.7	-1	-1.0	-12	2.6	3	-0.5	-4
Cc1oc(-c2ccccc2F)nc1CS(=O)CC(=O)NCc1ccc(Cl)cc1 (stereo unspecified)	-1.7	-11	-0.3	14	-0.9	9	0.5	-11
COc1cccc(/C=N/NC(=S)Nc2cccc(C(=O)O)c2)c1	-2.5	-11	2.7	-4	x	2	0.8	-4
CC(=O)NCCc1ccc(S(=O)(=O)N(C)C2CCS(=O)(=O)C2)cc1 (stereo unspecified)	2.5	-2	0.6	3	2.1	-1	-1.0	-3
COC(=O)c1cc(C(=O)N2CCOCC2)cc([N+](=O)[O-])c1	x	-3	2.2	-5	-2.5	-4	0.3	-5
Cc1ccc(C(=O)NCCNC(=O)COc2ccc(Cl)cc2)cn1	5.5	-1	1.3	0	3.2	-3	0.6	-3
CC(C)C[C@H](NC(=O)[C@@H]1Cc2ccccc2CN1)C(=O)Nc1ccc(C(C)C)cc1	2.5	3	3.3	3	0.0	2	0.9	1
COc1cc(CN(C(=S)NCC(=O)NC2CC2)C2CCCC2)cc(OC)c1OC	2.0	1	2.9	1	3.1	-17	0.3	-9
O=C(COC(=O)C1CCCO1)Nc1cccc(C(F)(F)F)c1 (stereo unspecified)	-1.2	1	4.0	-5	-0.4	-9	0.9	-3
CC(C)Oc1ccccc1/C=N/n1nnnc1N	-4.2	6	-2.9	4	x	6	-0.2	-9
CC(C)C1O/C(=N/C(=O)Nc2ccc(Cl)c(Cl)c2)NC1=O (stereo unspecified)	-0.3	-29	0.5	4	0.6	15	-0.2	3
CC(C)(C)NC(=O)CN(C(=O)C1(C)CC(=O)N=C2C=CC=CN21)C1CCCC1 (stereo unspecified)	8.7	23	-1.2	-3	-474	1	-0.3	1
O=C(c1ccco1)N1N=C(c2cccs2)CC1c1ccco1 (stereo unspecified)	-0.8	-1	-1.2	12	-1.7	-8	-0.6	2
Cn1ncc2c(O/N=C(\N)c3ccc(C(F)(F)F)cc3)ncnc21	2.0	24	3.4	50	x	-1	0.7	22
CC(CC(=O)O)CC(=O)Nc1ccc(S(N)(=O)=O)cc1 (stereo unspecified)	0.5	-13	-0.8	-6	5.1	-4	-0.1	-11
CCOc1ccc(N(CC(=O)NCc2ccc(F)cc2)S(=O)(=O)c2c(C)noc2C)cc1	-2.0	0	2.2	9	2.6	0	-0.1	-6
CCN1CCN(C(=O)CSCc2nc(-c3ccc(OC)c(OC)c3)oc2C)CC1	1.7	-1	-1.6	-11	3.9	6	2.3	0
COc1ccc(-n2c(SCC(=O)/C(C#N)=C(\C)N)nc3ccccc3c2=O)cc1OC	2.9	-7	4.7	-5	-1.5	6	0.4	8
CCOC(=O)C(=O)C1=C(N2CCOCC2)/C(=C\c2cccc([N+](=O)[O-])c2)CC1	9.6	-14	-2.8	5	11	9	0.9	-4
COc1ccc2occ(NC(C)=O)c2c1	-2.9	-11	u	-6	0.6	-7	-0.7	-6
Cc1ccc(S(=O)(=O)NCCC(=O)NC2CCCC2)cc1	2.0	6	2.4	-11	5.5	-9	0.4	-2
COc1ccccc1NC(=O)NCCN1CCN(c2cccc(Cl)c2)CC1	3.2	-15	3.7	-8	3.0	-7	-0.3	7
CCOC(=O)N1CCN(C(=O)C2CCN(S(=O)(=O)c3ccc(NC(C)=O)cc3)CC2)CC1	2.9	-5	5.6	-8	5.8	-6	0.5	x

(continued)
SMILES	LANA-H2B inh	Calb FLC	RanGTP-Imp inh	T cruzi inh	UCH37 DUB inh	Beta2AR agonist	Bfl-1 A1 inh	Beta apoptosis
O=C(NCCc1ccc(F)cc1)Nc1ccccc1Cl	-2.1	-32	x	x	4.7	2	0.1	5
O=C(C1CCC1)N1CCc2cc(S(=O)(=O)NCCCN3CCCCC3)ccc21	3.3	-31	-2.6	1	2.3	-7	-0.2	-8
Cc1c(C#N)c(SCC(N)=O)nc2c1CCCC2	4.9	-8	2.9	-5	4.4	-11	0.4	1
CCOC(=O)C(NC(C)=O)(OCc1ccc(F)cc1)C(F)(F)F (stereo unspecified)	3.5	-2	0.6	-8	-0.5	-6	0.4	-2
CCc1cc(C(=O)c2ccccc2)c(N)s1	0.9	-33	-0.7	-6	4.4	-7	0.0	3
CC(=O)c1c(C)[nH]c(C(=O)CSc2nnc(-c3ccccc3)o2)c1C	-0.3	5	0.2	-4	1.3	7	0.4	24
CN(C)S(=O)(=O)c1ccc(C(=O)Nc2nnc(-c3ccc4c(c3)CCCC4)o2)cc1	-0.7	30	-1.2	46	2.8	6	0.4	15
O=C(Nc1ccc(Br)cc1)C1CCCN(S(=O)(=O)c2cccnc2)C1 (stereo unspecified)	-1.9	17	1.7	11	-0.7	-7	0.9	1
Cc1cccnc1NC(=O)Nc1ccc(Cl)cc1	-2.9	-9	-0.8	-14	2.1	-8	-0.8	0
COCCn1c(SCCOc2ccccc2)nc2ccccc2c1=O	1.2	1	0.4	23	0.9	-7	-0.1	2
COc1ccccc1NC(=O)c1sc2ncn(Cc3ccccc3C)c(=O)c2c1C	-3.3	2	1.7	0	-287	-2	0.1	x
Fc1cccc(Cc2noc(CN3CCCN(C4Cc5ccccc5C4)CC3)n2)c1	-6.9	-25	3.9	57*	3.8	-5	0.2	-3
CCOc1ccc(S(=O)(=O)NC2CCCC2)cc1	-11	-26	1.4	-15	2.2	-3	0.6	-8
Cc1cccc(NC(=O)CSCC(=O)Nc2ccccc2N2CCCC2)c1	-6.0	-4	0.1	11	x	1	0.7	-5
Cc1cc(-c2ccc(C(C)C)c(S(=O)(=O)NCCN3CCC(C)CC3)c2)on1	-1.2	-25	2.9	10	-0.3	-4	1.4	4
COc1cc(-c2nc(S(=O)(=O)c3ccccc3)c(N3CCOCC3)o2)cc(OC)c1OC	-2.6	37	-0.4	8	2.6	-1	1.3	x
CCOC(=O)[C@@H]1[C@H]2COc3ccccc3[C@@H]2N2C(=O)N(c3ccccc3)C(=O)[C@@]12C	5.2	-8	0.1	12	0.6	-2	0.5	-7
CCOc1ccc(NC(=O)CN(C)S(=O)(=O)c2ccc(-c3ccc(=O)[nH]n3)s2)cc1	-1.2	8	2.3	-5	3.8	-2	1.4	2
